Yeast UUG start – yeast start codon fidelity modulation | activity score, % at 18.7 µM | 0.13% of 350,000 active | S. cerevisiae UUG-firefly luciferase reporter, luminescence/redox ratio;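 active means replicate mean at a twofold rise or more, about +100% in these data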;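 further: firefly luciferase made from a UUG start codon reports start codon fidelity; reporter light over untreated wells divided by growth signal over untreated wells; some hits fall short of that in this replicate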
PABP FP inh – blocks human PABP binding to poly(A) RNA | 1% of 290,000 active | fluorescence polarization | inhibition, % at 35 µM;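 active means 50% or more with normal probe brightness, or confirmed in later tests; about a fifth of its hits are not listed in these tables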;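 further: calls also rest on retests at 20 µM and on dose response follow-up; controls were probe without protein and protein plus probe with vehicle; some compounds called inactive have numbers as strong as hits; many hits fall short of the cut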
Target sequence (P11940 whole entry, looked up): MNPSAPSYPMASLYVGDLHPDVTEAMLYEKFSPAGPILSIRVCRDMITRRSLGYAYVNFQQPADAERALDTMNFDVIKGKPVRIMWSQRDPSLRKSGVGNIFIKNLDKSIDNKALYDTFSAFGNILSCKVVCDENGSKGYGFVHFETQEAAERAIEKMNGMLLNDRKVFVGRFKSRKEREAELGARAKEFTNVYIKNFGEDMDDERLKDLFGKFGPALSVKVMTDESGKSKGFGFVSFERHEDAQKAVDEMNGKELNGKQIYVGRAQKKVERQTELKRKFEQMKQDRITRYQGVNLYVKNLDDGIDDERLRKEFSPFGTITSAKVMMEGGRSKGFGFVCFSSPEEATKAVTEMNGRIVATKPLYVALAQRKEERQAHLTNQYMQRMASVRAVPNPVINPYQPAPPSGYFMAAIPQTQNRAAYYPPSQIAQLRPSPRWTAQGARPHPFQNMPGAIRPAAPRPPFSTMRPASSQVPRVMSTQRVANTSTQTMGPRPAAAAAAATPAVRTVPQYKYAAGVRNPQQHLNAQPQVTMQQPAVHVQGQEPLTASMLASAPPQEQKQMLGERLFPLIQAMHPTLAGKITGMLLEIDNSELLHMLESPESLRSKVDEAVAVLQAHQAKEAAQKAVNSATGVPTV
Rce1 inh – inhibitors of yeast Ras-converting enzyme; Q03530; calls only; AID 2563; 0.27% of 290,000 active; yeast membranes, quenched prenylated peptide cleavage fluorescence;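 active means fall in fluorescence gain of 50% or more versus controls, with final raw signal at or below 3038400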;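 further: plate controls were neutral control wells for no effect and wells lacking membranes for full effect; tested at 10 µM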
MT1-MMP act inh – blocks activation of human MT1-MMP. AID 651647. GFP/RFP ratio change, % at 20 µM. P50281. 0.061% of 360,000 active. HT1080 RFP-PRO-GFP cells, GFP/RFP ratio fluorescence, overnight; percent of plate control window, DMSO zero;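 active means GFP/RFP ratio change of at least 30% with cell ATP level not reduced by more than half and red fluorescence within 50% of control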; further: strong numbers were not always called active
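Assay system: HT1080 RFP-PRO-GFP cells. Benchmarks: DMSO vehicle wells and RFP-L50D-GFP reporter cell wells. Times: overnight cell settling, then overnight compound exposure, 37 °C, 5% CO2. Compound: 20 µM single dose, 1% DMSO. Read-out basis: GFP/RFP fluorescence ratio.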
CSC inhib – cancer stem cell inhibition | cancer stem cell-like cells viability, luminescence | inhibition, % at 7.5 µM | 1.1% of 300,000 active;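 active means mean at 75% or more and at least half the replicates too; tested in HMLE shEcad cells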;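 further: 0% = median of negative and 100% = median of positive control wells; the first replicate is given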
Env fusion inh – HIV envelope-mediated fusion inhibition. AID 651610. HeLa-JRFL Env/CEM21 cell fusion, luciferase. inhibition, % at 12.3 µM. 1.1% of 360,000 active;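 active means mean replicate inhibition score of at least 50 and every replicate individually at or above 50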;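 further: 0% = plate neutral controls and 100% = maraviroc near 300 nM; one replicate is shown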
eIF4H FP inh – inhibitors of RNA binding by human eIF4H | inhibition, % at 35 µM | eIF4H fluorescence polarization binding assay | 0.94% of 290,000 active | Q15056;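 active means 50% or more with normal probe brightness, or confirmed in later tests; about a fifth of its hits are not listed in these tables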;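 further: calls also rest on retests at 20 µM and on dose response follow-up; 0% = protein and probe with vehicle and 100% = probe without protein; strong numbers were not always called active; many hits fall short of the cut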
eIF4H FP inh retest – also measured in eIF4H FP inh; calls as there; inhibition, %; compound at 20 µM; confirmation average;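 mean of two retest wells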
PABP FP inh retest – further read-out of PABP FP inh, marked with its call; inhibition, %; compound at 20 µM; confirmation repeats;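 mean of two retest wells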
MT1-MMP act inh RFP – recorded beside MT1-MMP act inh, whose call it bears; RFP signal change, %; measured here: RFP expression control read;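 0 = vehicle wells; hits needed this value within 50% of zero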
Numbers without * were called inactive; i = inactive; nt = no result given. Rows were taken by chance; about 2.9% have a hit in one of these screens.

SMILES	Yeast UUG start	PABP FP inh	Rce1 inh	MT1-MMP act inh	MT1-MMP act inh RFP	CSC inhib	Env fusion inh	eIF4H FP inh	others
COc1cccc(N/C=C/c2onc(C)c2[N+](=O)[O-])c1	-28	11	nt	-1	2	5	-73	-3
COc1ccc(-n2c(=O)cc(N3CCN(c4ccccc4OC)CC3)[nH]c2=O)cc1	-7	16	nt	-1	-1	0	10	14
Cc1cc(C)n2nc(-c3cccnc3)nc2n1	7	20	i	9	-3	-15	nt	-3
Cc1ccc(S(=O)(=O)N2CCC(C(=O)OC(C)C(=O)NC3CCCCC3C)CC2)cc1 (stereo unspecified)	-2	nt	nt	-1	-3	-16	nt	nt
CCCCCCc1ccc(N2C[C@H](C)[C@@H](CC(=O)NCc3ccccc3)C2=O)cc1	-16	-1	i	3	1	-8	12	-12
O=C(CSCc1ccccc1Cl)NN=C1CCCCCC1	-4	-9	i	-2	8	-6	5	-9
Cc1ccc(N(CC(=O)NCc2ccco2)C(=O)CCC(=O)Nc2nccs2)c(C)c1	-8	9	nt	0	1	-5	6	6
CCNC(=S)N1CCN(S(=O)(=O)c2cccc(C(F)(F)F)c2)CC1	8	13	i	3	3	-7	14	-6
CC(C)(C)Cc1nnc(NS(=O)(=O)c2ccc(F)cc2)s1	-6	7	i	4	5	-6	11	2
Cc1ccc(S(=O)(=O)N2CCCCC2)cc1NC(=O)c1ccco1	-13	nt	nt	2	6	nt	-8	nt
CCCn1c(C)cc(-c2csc(NC(=O)CCc3nc4ccccc4c(=O)[nH]3)n2)c1C	4	nt	i	-6	0	-9	-27	nt
O=C(CCc1nc2sc3c(c2c(=O)[nH]1)CCCC3)NCCOc1ccccc1	-14	nt	i	-3	3	-17	-170	nt
C=CC[C@@H](CC(=O)N[C@@H](CO)Cc1ccccc1)C(=O)N[C@H](COC(=O)[C@@H](CC=C)Cc1ccc(F)cc1)Cc1c[nH]c2ccccc12	-14	nt	nt	5	-1	-6	-22	nt
Cn1nc(-c2ccc(C(=O)NCC3CCCO3)cc2)c2ccccc2c1=O (stereo unspecified)	-11	-4	i	5	7	nt	nt	1
COc1cccc(NC(=O)CCC2CCN(C(=O)c3sccc3C)CC2)c1	1	13	i	1	-2	3	nt	9
Cc1cccc(CN2CCN(C(c3ccccc3)c3ccc(Cl)cc3)CC2)c1 (stereo unspecified)	0	-2	i	-3	-5	86*	-2	-12
COC(=O)NNC(=O)CCCOc1ccc(Cl)cc1Cl	7	37	i	4	3	-7	16	-8
COc1cc2[nH]c(=S)n(Cc3ccc(F)cc3)c(=O)c2cc1OC	nt	-12	i	3	1	-16	-33	-5
Cc1cc(=O)oc2cc(Oc3ncccn3)ccc12	-5	-6	i	4	-2	-4	12	4
O=C(c1ccco1)N(Cc1ccc([N+](=O)[O-])cc1)c1ccc(Br)cc1	2	2	i	8	4	7	-22	0
COc1ccc(CCNC(=O)COC(=O)c2ccc[nH]c2=O)cc1	-9	-2	i	2	0	-4	5	4
N#C/C(=C\c1cn[nH]c1-c1ccccc1Br)C(=O)O	nt	-17	i	1	6	-2	-18	6
O=C(NCc1ccccc1Cl)c1ccc(Br)o1	-6	6	i	2	-1	-9	7	5
C=CCN1C(=O)/C(=C2\SC(N3CCOCC3)=NC2=O)c2cc(Br)ccc21	-22	12	i	-5	-6	-15	4	10
COc1ccc(OC)c2nc(-c3ccc4c(c3)OCO4)ccc12	-23	-2	i	1	3	-2	-121	0

By substructure: those above with a furan ring, fused or not
SMILES	Yeast UUG start	PABP FP inh	Rce1 inh	MT1-MMP act inh	MT1-MMP act inh RFP	CSC inhib	Env fusion inh	eIF4H FP inh	others
Cc1ccc(N(CC(=O)NCc2ccco2)C(=O)CCC(=O)Nc2nccs2)c(C)c1	-8	9	nt	0	1	-5	6	6
Cc1ccc(S(=O)(=O)N2CCCCC2)cc1NC(=O)c1ccco1	-13	nt	nt	2	6	nt	-8	nt
O=C(c1ccco1)N(Cc1ccc([N+](=O)[O-])cc1)c1ccc(Br)cc1	2	2	i	8	4	7	-22	0
O=C(NCc1ccccc1Cl)c1ccc(Br)o1	-6	6	i	2	-1	-9	7	5

The list goes on:
SMILES	Yeast UUG start	PABP FP inh	Rce1 inh	MT1-MMP act inh	MT1-MMP act inh RFP	CSC inhib	Env fusion inh	eIF4H FP inh	others
CCc1ccc(C(=O)N/N=C/c2ccc(Cl)cc2Cl)nc1	nt	-5	i	nt	nt	10	nt	1
O=C(CCc1ccccc1)N1CCN(CCO)CC1	-18	1	i	1	3	7	-254	-3
CCOC(=O)c1ccc(S(=O)(=O)NNC(=O)COc2ccc(C)cc2)cc1	nt	-2	i	1	2	-3	-58	-1
O=C(NS(=O)(=O)Nc1ccccc1)C1=C(N2CCCC2)COC1=O	-17	nt	nt	2	6	nt	3	nt
Nc1nc(SCC(=O)NCc2ccc3c(c2)OCO3)n[nH]1	nt	0	i	-1	-1	1	-35	2
CCOC(=O)C1CCN(CCC(=O)Nc2ccc(Br)c(C)c2)CC1	-4	10	i	-5	1	-8	5	99	eIF4H FP inh retest=5;PABP FP inh retest=-2
O=C(c1ccccc1O)N1CCOCC1	-9	0	i	1	3	-13	12	4
CCN(CC)C(=O)Cn1c(=O)oc2ccccc21	nt	2	i	2	-1	-6	-5	2
O=C(COC(=O)C1CCN(c2ccc(C(F)(F)F)cn2)CC1)NCc1ccc(F)cc1	11	nt	i	5	2	-23	0	nt
CC(OC(=O)c1nsc(Cl)c1Cl)C(=O)NCc1ccco1 (stereo unspecified)	-19	1	i	-1	1	-15	-32	-1
CCc1nnc(NC(=O)c2ccc(Cl)c(S(=O)(=O)N3CCc4ccccc4C3)c2)s1	2	11	i	0	-14	16	nt	5
CC(=O)Nc1cccc(-c2csc(Nc3ccccn3)n2)c1	-26	-9	i	4	-11	1	-291	-1
O=C(NC1CCN(C(=O)N2c3ccccc3Sc3ccccc32)CC1)c1ccccc1F	-7	-9	i	-7	-19	nt	nt	-4
COC(=O)C1=C(C)NC(C)=C(C(=O)OC)C1c1ccc(-c2cccc([N+](=O)[O-])c2)o1	-8	-14	i	5	2	26	-1	-3
O=S(=O)(c1cccc2nonc12)N1CCN(c2ccc(F)cc2)CC1	nt	4	i	0	1	-9	15	-9
CSc1ccccc1C(=O)Nc1cccc([N+](=O)[O-])c1C	nt	-5	i	2	2	-19	2	0
O=C(COC(=O)CCc1nc2ccccc2c(=O)[nH]1)NC(c1ccccc1)c1ccccc1	-26	-13	i	1	3	8	-6	-12
Cc1cccc(NC(=O)CN2CCN(CC(=O)Nc3cccc(C)c3)CC2)c1	-14	6	i	15	2	6	-2	-7
Oc1[nH]c2ccc(Br)cc2c1N=NC(=S)NCC1CCCO1 (stereo unspecified)	-26	6	i	6	-7	42	6	20
Cc1cccc(N2CCN(C(=O)C3CCN(S(=O)(=O)c4c(C)noc4C)CC3)CC2)c1C	1	nt	i	-5	-22	-22	19	nt
O=C(COC(=O)c1cccc(S(=O)(=O)N2CCc3ccccc32)c1)Nc1ccc(Cl)cn1	nt	-5	i	0	6	-2	1	16
CC(=O)c1ccc(-n2c(-c3cc(-c4ccsc4)n[nH]3)n[nH]c2=S)cc1	nt	9	i	1	1	-10	1	4
O=C(N/N=C/c1cccc([N+](=O)[O-])c1)c1cc(-c2ccc3c(c2)OCO3)n[nH]1	3	23	i	1	-4	11	-25	22
O=S(=O)(c1ccc2c(c1)OCCO2)N1CCC(O)(c2ccc(Cl)cc2)CC1	8	-3	i	-3	-9	-9	-20	-1
O=[N+]([O-])c1ccc(NCCCNS(=O)(=O)c2ccc(Cl)cc2)c(Cl)c1	nt	-5	i	1	-3	2	nt	-6
Following part.
SMILES	Yeast UUG start	PABP FP inh	Rce1 inh	MT1-MMP act inh	MT1-MMP act inh RFP	CSC inhib	Env fusion inh	eIF4H FP inh	others
O=C(CSc1nc(-c2ccccc2)cc(=O)[nH]1)N1CCc2ccccc21	-17	-4	nt	-2	-5	-15	-87	9
O=C(Nc1cccc(S(=O)(=O)N2CCCCCC2)c1)c1ccc2ccccc2n1	-2	-9	i	-11	-12	nt	-5	2
COC(=O)c1ccc2c(=O)n(CCN3CCOCC3)c(SCC(=O)Nc3cccc(OC)c3)nc2c1	6	-4	i	-2	3	-5	-12	-12
COc1ccc(OC)c(S(=O)(=O)N2CCC(C(=O)N3CCCC3)CC2)c1	nt	4	i	-1	3	1	-2	-7
CNc1cnc(-c2ccsc2)cn1	-13	nt	nt	3	7	nt	7	nt
Cc1ccc(S(=O)(=O)N2C[C@H]3[C@H]4C(=O)N(c5ccccc5)C(=O)[C@H]4C[C@H](OC(=O)NCC4CCCCC4)[C@@]3(O)C2)cc1	-14	nt	nt	0	3	nt	4	nt
COc1cc(CC(=O)N/N=C/c2ccccc2)c([N+](=O)[O-])cc1OC	nt	10	i	nt	nt	-10	nt	4
c1ccc(NC2=NCCN2CCCC2CCCC2)cc1	-12	nt	nt	-5	-5	3	-40	nt
COc1ccc(C2=NOC(COc3ccc4c(C)cc(=O)oc4c3)C2)c(OC)c1 (stereo unspecified)	-43	-10	i	-4	-9	61	-154	-4
CCCCC1=NN(C(=O)c2cccnc2)C(O)(C(F)(F)F)C1 (stereo unspecified)	0	15	i	2	-3	-18	-11	0
COc1ccc2[nH]c(=O)c(CN(c3ccccc3OC)S(=O)(=O)c3ccccc3)cc2c1	-14	7	i	-7	-8	30	-2	-8
Cc1cc(NC(=O)Cn2nc(C(F)(F)F)c3c2CCC3)n(-c2ccccc2)n1	-8	6	i	-1	4	-12	-54	-1
COc1ccccc1CN(CC(=O)NCc1ccc2c(c1)OCO2)C(=O)c1ccc2c(c1)OCCO2	0	8	i	0	-1	17	nt	-5
Cc1nn(Cc2ccccc2Cl)c(C)c1C(=O)NCc1ccco1	-8	6	i	12	-4	7	-16	6
CCCCOc1ccccc1NC(=O)CC1Nc2ccccc2NC1=O (stereo unspecified)	-12	-4	i	-15	-4	-11	nt	-2
COc1cccc(C(=O)O/N=C2\CCS(=O)(=O)c3sccc32)c1	nt	-7	i	0	-1	-11	-11	-8
O=C(CN1C(=O)COc2ccc(Cl)cc21)Nc1ccc2c(c1)OCCO2	nt	-7	i	-5	1	-7	nt	-6
CSc1nnc(N2C(=O)C(O)=C(C(=O)c3ccco3)C2c2ccccc2F)s1 (stereo unspecified)	-8	36	i	-54	7	7	0	29
CC1(C)CC(NC(=O)c2cccc(S(=O)(=O)N(Cc3ccccc3)c3ccccc3)c2)CC(C)(C)N1	-14	nt	i	-3	-5	18	-3	nt
CCCNC(=O)CSc1ccc(S(=O)(=O)N2CCCC2)cn1	0	nt	nt	-2	4	2	-5	nt
CCOc1ccc(CCNC(=O)COC(=O)c2ccc(S(C)(=O)=O)cc2)cc1OCC	-6	nt	i	-1	4	4	-1	nt
CCc1nnc(NCn2nc(C)cc2C)s1	-25	-3	i	11	9	-13	-27	0
COc1ccc(/C=C/C(=O)NC(C)CCc2ccccc2)cc1 (stereo unspecified)	nt	-5	i	-3	-2	9	-215	10
O=S(=O)(/C=C/c1ccccc1)Nc1ccc(F)cc1	nt	2	i	-4	-4	-10	8	-4
CC(=O)c1ccc(Nc2c(C)n(C)n(-c3ccccc3)c2=O)cc1	nt	-4	i	-3	2	-6	18	4
CCOC(=O)C(=CNc1cc(OC)ccc1-n1cccc1)C(=O)OCC	-10	-6	i	0	-4	13	-2	8
Cc1ccn2c(=O)nc(SCC(=O)N3CCCCC3)nc2c1	-6	nt	i	-2	2	-8	-5	nt
Cc1cscc1-c1nc(NCC2CC2)nc2ccsc12	-7	nt	nt	-6	-4	nt	-74	nt
Cc1cccc(N/C=C/c2onc(C)c2[N+](=O)[O-])c1	nt	10	i	-2	7	-5	nt	9
COC(C/C=C\[C@@H](O)[C@@H](C)OCc1ccccc1)OC	-13	nt	i	-1	2	-16	1	nt

Screening results as filed in PubChem BioAssay.
